# Cruzain inh Det: blocks cruzain activity in presence of Triton detergent; P25779; purified cruzain, Z-FR-AMC fluorescence, 0.01% Triton; Potency, µM, for inactives: max response, negative = inhibition, actives largely listed as inhibitors; actives 0.43% (n = 200,000); active means well fitted curve in the direction sought with a large enough effect; inconclusive means small, poorly fitted or top-dose-only effect, or another doubt; inactive means no such curve, though single readings can be large; an effect the other way counts as inactive or inconclusive;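 further: plate controls were neutral wells for no effect and buffer without enzyme for full effect; nearly all actives have a fitted effect of over 40% in size; top concentration of the series not given in the record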
# Target sequence (P25779 123-467 limits assumed): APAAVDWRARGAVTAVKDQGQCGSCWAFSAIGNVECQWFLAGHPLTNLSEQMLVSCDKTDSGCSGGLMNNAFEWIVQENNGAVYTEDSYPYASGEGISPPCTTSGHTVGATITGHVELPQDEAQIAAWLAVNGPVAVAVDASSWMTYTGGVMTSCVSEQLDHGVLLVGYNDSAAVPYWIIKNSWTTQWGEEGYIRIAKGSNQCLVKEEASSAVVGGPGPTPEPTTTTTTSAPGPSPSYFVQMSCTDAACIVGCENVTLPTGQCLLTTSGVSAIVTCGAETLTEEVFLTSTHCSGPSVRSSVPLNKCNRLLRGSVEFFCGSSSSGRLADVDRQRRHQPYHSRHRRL
#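 Cysteine protease activity tested under reducing, mildly acidic conditions (100 mM sodium acetate pH 5.5, 5 mM DTT) plus 0.01% Triton X-100. Cruzain 1.5 nM; substrate Z-FR-AMC 2 uM; 15 min compound preincubation at room temperature.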
# StopGo reporter: FMDV 2A StopGo reporter, luciferase signal; human cells with a luciferase reporter of 2A StopGo recoding; control for the full effect not named in the record; Potency, µM (top dose mostly 57.9 µM), without a hit: at the top dose signal change, negative = less light; actives 1.2% (n = 410,000); AID 1159524; active = well fitted falling curve with a large enough effect; inconclusive = small, poorly fitted or top-dose-only effect; inactive = no such curve, though single readings can be large or run the other way; tested in HEK293T cells; further: on the % scale 0 is the no-effect control and ±100 the full control effect; nearly all actives have a fitted effect of over 45% in size; luciferase light after 4 h
# Cruzain inh noDet: blocks cruzain activity in detergent-free assay | P25779 | purified cruzain, Z-FR-AMC fluorescence, no detergent | Potency, µM, for inactives: max response, negative = inhibition, actives largely listed as inhibitors | actives 2.3% (n = 200,000) | AID 1476; active means well fitted curve in the direction sought with a large enough effect; inconclusive means small, poorly fitted or top-dose-only effect, or another doubt; inactive means no such curve, though single readings can be large; an effect the other way counts as inactive or inconclusive;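 further: plate controls were enzyme without inhibitor for no effect and buffer without enzyme for full effect; nearly all actives have a fitted effect of over 40% in size; top concentration of the series not given in the record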
#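 Detergent-free condition (0.00005% Triton X-100) in acetate buffer pH 5.5 with DTT. 1.5 nM enzyme and compound were pre-mixed 15 min, then 2 uM Z-FR-AMC substrate added; reaction progress from fluorescence change between first and third reads (60 s).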
# NS1 inh: inhibitors of influenza NS1 protein function | S. cerevisiae slowed by influenza A NS1, growth recovery by OD600 | Potency, µM (series often up to 46.1 µM), inactives show at the highest dose activity, positive = more growth | actives 0.4% (n = 270,000) | AID 2326; further: actives are rising curves; nearly all actives have a fitted effect of over 50% in size
#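 Read-out: OD600 growth recovery of NS1-expressing budding yeast. Cells grown overnight at 30C in -URA glucose medium, washed, resuspended and diluted 1:100 in 2% galactose assay medium, pH 6.0. Same strain lacking NS1 served as positive control.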
# RE007 growth inh: less growth of the S. pombe RE007 Vpr strain; S. pombe RE007 Vpr strain, BacTiter-Glo ATP luminescence, 24 h; control for the full effect not named in the record; Potency, µM (doses to about 92.2 µM), for inactives: at the highest dose activity change, negative = less growth; actives 0.21% (n = 360,000); active = well fitted falling curve with a large enough effect; inconclusive = small, poorly fitted or top-dose-only effect; inactive = no such curve, though single readings can be large or run the other way;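 further: on the % scale 0 is the no-effect control and ±100 the full control effect; nearly all actives have a fitted effect of over 50% in size; the assay follows cell death caused by Vpr and the record does not say whether a fall means rescue or toxicity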
#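 Fission yeast strain RE007, carrying one chromosomally integrated HIV-1 vpr copy, was seeded at OD 0.01 in PMG+AL medium with 23 nL pinned compound. After 24 h at 30 °C and 99% humidity, viability was read by BacTiter-Glo luminescence.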
# SARS PLP yeast: inhibitors of SARS-CoV papain-like protease in yeast; Potency, µM (series often up to 32.9 µM), for inactives: at the highest dose activity, positive = growth rescue; S. cerevisiae expressing SARS-CoV PLpro, growth rescue; control for the full effect not named in the record; actives 0.19% (n = 330,000); further: 0% is about no effect; nearly all actives have a fitted effect of over 55% in size; growth read by luminescence after 48 h
# LASV entry inh: blocks Lassa virus binding to or entry into cells | Lassa virus pseudotype entry inhibition, cell reporter; control for the full effect not named in the record | actives 1.2% (n = 300,000) | Potency, µM (highest dose often 37.9 µM), without a hit: top-dose activity change, negative = inhibition, hits mostly inhibitors; active means well fitted inhibition curve with a large enough effect; inconclusive means small, poorly fitted or top-dose-only effect, or effect the other way; inactive means flat fitted curve, though single readings scatter; tested in HEK293 cells; further: on the % scale 0 is the no-effect control and ±100 the full control effect; nearly all actives have a fitted effect of over 50% in size; luciferase read-out
# Marburg entry inh: Marburg virus entry inhibition; Marburg virus pseudotyped entry inhibition, cell reporter; control for the full effect not named in the record; about a third of the inactives were read at about 46 µM; Potency, µM (doses to about 37.8 µM), without a hit: at the highest dose activity change, negative = inhibition, hits mostly inhibitors; actives 1.8% (n = 300,000); AID 540276; active = well fitted inhibition curve with a large enough effect; inconclusive = small, poorly fitted or top-dose-only effect, or effect the other way; inactive = flat fitted curve, though single readings scatter; tested in HEK293 cells; about a fifth of its hits are not listed in these tables; further: on the % scale 0 is the no-effect control and ±100 the full control effect; luciferase read-out
# The depositor's hits bear a star; ? = inconclusive; / = not tested or not shown; [ ] = another dose, or the depositor's remark. Unless noted, the call rests on the fitted dose curve; in most records, active means well fitted rising curve with a large enough effect; inconclusive means small, poorly fitted or top-dose-only effect; inactive means no such curve, though single readings can be large or run the other way. Potency means the concentration at half of the fitted maximal effect.
SMILES,Cruzain inh Det,StopGo reporter,Cruzain inh noDet,NS1 inh,RE007 growth inh,SARS PLP yeast,LASV entry inh,Marburg entry inh
COc1ccc(S(=O)(=O)N2CCN(C(=O)c3cc(-c4ccccc4OC)n[nH]3)CC2)cc1,/,?,/,19.0%,23.0%,-6.6%,/,/
COC(=O)C1CCN(C(=O)COc2ccc(N(C)S(=O)(=O)c3ccc(C)cc3)cc2)CC1,/,-6.7%,/,/,3.1%,-1.4%,5.5%,28.6%
Cc1nn(CCOc2ccccc2)c(=O)n1-c1cccc(F)c1,2.8%,53.6%[activator],-7.7%,-3.5%,-8.8%,-5.3%,10.5%,6.9%
Cc1cc(NC(=O)c2ccccc2C)n(-c2cccc(F)c2)n1,/,-14.8%,/,-4.5%,8.5%,4.3%,3.4%,-5.4%
COc1ccc(N(C)C(=O)Cn2cc(S(=O)(=O)N3CCN(c4ccccc4F)CC3)c3ccccc3c2=O)c(OC)c1,-3.6%,0.0%,1.0%,/,/,/,-2.0%[46.1 µM],?
O=C(COC(=O)CCc1c[nH]c(=O)[nH]1)Nc1cccc(Cl)c1,-7.7%,-3.5%,-7.7%,3.3%,2.6%,1.8%,-17.5%[14.3 µM],0.6%
Cc1ccc(N=C2NC(=O)S/C2=C\c2ccco2)cc1,?,-6.1%,?,17.7%,3.2%,4.9%,5.6%,0.4%
Cc1[nH]c2ccc(F)cc2c1CCN(Cc1ccncc1)C(=S)Nc1ccccc1,/,5.9%,/,/,-9.1%,-1.4%,/,?
Cc1ccc(NC(=O)CN(C)C(=O)CSc2nnc(C)s2)cc1,/,-3.7%,/,/,24.6%,-3.5%,-13.9%[46.1 µM],11.4%[46.1 µM]
O=C(CN1CCN(Cc2ccc(F)cc2Cl)C1=O)NCc1cccs1,/,-0.1%,/,/,10.7%,-0.5%,4.3%[46.1 µM],13.6%[46.1 µM]
COC(=O)COc1ccc(-n2cnnn2)cc1,/,-8.2%,/,/,4.8%,-0.8%,6.5%[46.1 µM],-4.7%[46.1 µM]
CCCN1CCN(CCCNC(=O)c2ccc3c(c2)sc2nc(-c4ccc(OC)cc4)cn23)CC1,-2.2%,13.0%,0.1%,/,/,/,25.6%[46.1 µM],/
Cc1ccc(C)c(NC(=O)C2CCN(C(=O)c3cccs3)CC2)c1,/,-19.8%,/,-4.9%,-0.9%,-0.8%,-10.7%,4.9%[46.1 µM]
Cc1ccccc1-n1ncc(C(C)NC(=O)c2ccccc2)c1C (stereo not given),/,2.9%,/,1.6%,30.4%,0.1%,/,/
O=C(COC(=O)c1cccc(Br)c1)NCCC1=CCCCC1,/,0.3%,/,/,-3.5%,6.0%,1.8%,5.3%[46.1 µM]
Cc1ccccc1-c1noc(CSc2nc3ccccc3[nH]2)n1,-28.2%,0.0%,-6.4%,/,/,/,-15.9%[46.1 µM],-28.4%[46.1 µM]
OC[C@@H]1[C@@H](c2ccccc2)C(c2cccc(Cl)c2)=NN1c1ccccc1,1.6%,-21.0%,25.1µM*,/,-9.2%,-79.4%,/,/
COc1ccccc1NC(=O)Cn1cc(C(=O)C(=O)N2CCOCC2)c2ccccc21,/,21.0%,/,17.0%,-2.6%,3.0%,3.5%,-5.4%
COc1ccc(-c2nc3sc(CCNC(=O)C(=O)Nc4ccc(C)c(F)c4)c(C)n3n2)cc1,1.5%,28.3%,-17.1%,/,/,/,-15.9%[46.1 µM],/
CCc1cc(C(=O)N2CCCC(C(=O)c3ccc(Cl)cc3)C2)no1 (stereo not given),/,?,/,-15.3%,3.7%,-15.5%,32.2%[46.1 µM],-7.4%[46.1 µM]
COc1ccc(C(CNC(=O)c2ccc(OCc3ccccc3)cc2)N2CCOCC2)cc1 (stereo not given),/,-7.2%,/,/,-3.9%,-3.1%,?,?
O=C(NCc1ccccc1)c1ccc2c(c1)N(Cc1ccccc1F)C(=O)c1ccccc1S2=O (stereo not given),-0.9%,-18.3%,?,/,/,/,-4.6%[46.1 µM],?
Cc1cccc(NC(=O)c2ccc(N(Cc3ccccc3)S(C)(=O)=O)cc2)c1,-7.0%,22.4µM*,11.0%,/,/,/,?,/
Nc1c(C(=O)N2CCOCC2)oc2ccccc12,/,19.0%,/,-2.9%,-19.3%,-1.4%,/,/
CC1Cc2ccccc2N1C(=O)CCn1cccn1 (stereo not given),/,-9.2%,/,8.9%,1.2%,-2.0%,/,/
Clc1ccc(OCCCCN2CCc3ccccc3C2)cc1,/,-29.0%,/,-3.2%,-2.9%,-0.2%,-2.1%,-25.7%
Cc1cc(C)cc(N2C(=O)C3C4C=CC(C4)C3C2=O)c1 (stereo not given),6.3%,-16.8%,4.5%,-3.1%,-0.9%,-1.8%,-17.0%,6.8%
O=C(c1cc2nc(-c3ccco3)cc(C(F)(F)F)n2n1)N1CCN(c2ccccc2)CC1,-9.0%,/,?,-2.1%,16.8%,-9.9%,-3.6%,-11.0%
CCOC(=O)C1CCN(c2nc3c(S(=O)(=O)c4ccc(Br)cc4)nnn3c3ccsc23)CC1,-3.3%,-22.6%,1.1%,/,/,/,-12.0%[46.1 µM],/
Cc1ccc(C)c(S(=O)(=O)N2CCCC2CNC(=O)C(=O)NCCN2CCOCC2)c1 (stereo not given),/,-5.6%,/,/,-24.2%,4.0%,13.9%,19.7%
COc1ccccc1CN(C)C(C)C(=O)Nc1cccc(C(C)=O)c1 (stereo not given),/,?,/,/,11.8%,-1.3%,-9.7%,?
Cc1ccc(S(=O)(=O)N2CCC(C(=O)Nc3nnc(-c4ccco4)s3)CC2)cc1,-5.3%,2.3%,-0.4%,2.3%,7.9%,0.4%,-1.1%,-18.3%
O=C(Nc1ccn(Cc2ccccc2F)n1)c1ccc(COc2ccc(Cl)cc2Cl)o1,-16.7%,?,?,20.2%,5.2%,-4.8%,10µM*,?
CCOC(=O)COc1ccc(C2C(C(=O)OC)=C(C)NC3=C2C(=O)c2ccccc23)cc1Cl (stereo not given),1.3%,-14.3%,1.2%,/,/,/,4.2%[46.1 µM],3.2%[46.1 µM]
CCSc1ccccc1C(=O)Nc1ccc([N+](=O)[O-])cc1OC,/,-3.3%,/,-9.5%,-22.1%,-0.5%,/,/
O=C(c1ccc(NS(=O)(=O)c2ccc3[nH]c(=O)[nH]c3c2)cc1)N1CCCC(C(F)(F)F)C1 (stereo not given),/,-11.3%,/,/,-8.4%,-3.6%,-16.8%,3.8%
CCN1CCN(c2nc3c(c(=O)[nH]c(=O)n3C)n2Cc2ccccc2F)CC1,/,-8.2%,/,9.3%,-2.3%,-1.1%,/,/
COc1cccc(/C=C2/SC(=S)N(CC(=O)NC3C=CS(=O)(=O)C3)C2=O)c1 (stereo not given),/,-4.7%,/,-9.8%,1.5%,-4.6%,/,/
CCCCNC1=CC(=O)C(NCCCC)=CC1=O,/,-11.3%,/,/,-17.7%,/,-22.1%[46.1 µM],?
CCOc1cc2c3c(c1)C(C)=CC(C)(C)N3C(=O)C2=O,/,27.9%,/,7.0%,4.2%,-0.2%,/,/
CCOC(=O)N1CCN(S(=O)(=O)c2ccc(-n3cnnn3)cc2)CC1,/,-22.7%,/,6.8%,0.0%,-1.3%,20.1%[46.1 µM],8.8%[46.1 µM]
COC(=O)C1=NN(N=O)C2(CC(=O)N(c3cc(C)cc(C)c3)C2=O)C1 (stereo not given),-11.4%,0.4%,-8.7%,-3.3%,-3.6%[3.69 µM],10.7%,2.8%,4.7%
O=S(=O)(NCc1ccccn1)c1cc(Cl)ccc1Cl,/,10.7%,/,3.7%,2.1%,1.1%,9.5%[46.1 µM],11.8%[46.1 µM]
CC(C)OCCCNC(=O)c1c2c(nc3ccccc13)C(=O)N(C1CCCCC1)C2,-2.5%,-2.6%,-9.3%,/,/,/,9.5%[46.1 µM],/
CCN(CC)C(=O)CSc1nnc(-c2cccc(OC)c2)o1,-0.9%,39.5%[activator],0.1%,-5.5%,11.4%,-2.2%,11.5%,16.8%
CN(C)CCNC(=O)c1onc(CSc2ccc(F)c(F)c2)c1C(=O)NCCN(C)C,/,-16.3%,/,-7.5%,-15.4%,-3.3%,/,/
O=C(O)c1ccc(NC(=O)C(c2ccccc2)c2ccccc2)cc1,/,-6.3%,/,-40.2%,2.8%,3.0%,/,/
CCCCN(CCCC)c1ncnc2c1cnn2-c1cccc(C)c1,2.6%,-12.3%,8.1%,/,/,/,3.1%[46.1 µM],/
CC(=O)Nc1nonc1NC(=O)CSc1ccccn1,3.5%,19.1%,-0.8%,1.8%,3.8%,-1.5%,16.2%,24.4%
Cc1cc(C)c2[nH]c(=O)c(CN(CC3CCCO3)C(=S)NCc3ccco3)cc2c1 (stereo not given),-2.2%,2.8%,-5.6%,14.4%,8.8%,3.3%,?,-2.8%
Cc1ccc(S(=O)(=O)NCCc2ccccc2)cc1,1.8%,126.9%[activator],-7.7%,-9.8%,-4.8%,-3.6%,?,2.0%
CCC1C(=O)NCCN1C(=O)c1cccc(OC2CCN(S(=O)(=O)N(C)C)CC2)c1 (stereo not given),/,10.2%,/,4.6%,3.8%,-1.5%,/,/
COc1ccc(CCN2C(=O)c3oc4cc(C)cc(C)c4c(=O)c3C2c2ccc(F)cc2)cc1OC (stereo not given),-0.7%,0.1%,-8.8%,/,/,/,3.1%[46.1 µM],5.1%[46.1 µM]
CCN(C(=O)COC(=O)/C=C/c1ccco1)C1CCCCC1,/,-12.7%,/,/,3.3%,3.5%,10.3%,19.0%
Cc1cc(-c2nn(-c3ccccc3F)cc2CN2CCN(c3ccncc3)CC2)c(C)s1,/,-15.0%,/,0.8%,-19.9%,-1.3%,?,6.31µM*
CNC(=O)COc1ccc(S(=O)(=O)Nc2ccc(C)cc2)cc1,/,8.2%,/,0.6%,4.0%,1.7%,/,/

# Screens from PubChem BioAssay.
